Source: PubChem BioAssay (Broad Institute)
MLL AF4-AF9 inh: inhibitors of human MLL-AF4/AF9 interaction; AlphaScreen, biotin-AF4 peptide binding to FLAG-AF9; inhibition, % at 10 µM; P42568; hit rate 0.47% among 350,000; AID 651704;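 active = every replicate reaching a set inhibition limit, whatever the replicate mean, cut at about 25% in these data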;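 note: 0% = plate neutral control median and 100% = total signal loss; the record names both 10 and 1 µM as test concentration; the first replicate is given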
Target sequence (P42568 whole entry, looked up): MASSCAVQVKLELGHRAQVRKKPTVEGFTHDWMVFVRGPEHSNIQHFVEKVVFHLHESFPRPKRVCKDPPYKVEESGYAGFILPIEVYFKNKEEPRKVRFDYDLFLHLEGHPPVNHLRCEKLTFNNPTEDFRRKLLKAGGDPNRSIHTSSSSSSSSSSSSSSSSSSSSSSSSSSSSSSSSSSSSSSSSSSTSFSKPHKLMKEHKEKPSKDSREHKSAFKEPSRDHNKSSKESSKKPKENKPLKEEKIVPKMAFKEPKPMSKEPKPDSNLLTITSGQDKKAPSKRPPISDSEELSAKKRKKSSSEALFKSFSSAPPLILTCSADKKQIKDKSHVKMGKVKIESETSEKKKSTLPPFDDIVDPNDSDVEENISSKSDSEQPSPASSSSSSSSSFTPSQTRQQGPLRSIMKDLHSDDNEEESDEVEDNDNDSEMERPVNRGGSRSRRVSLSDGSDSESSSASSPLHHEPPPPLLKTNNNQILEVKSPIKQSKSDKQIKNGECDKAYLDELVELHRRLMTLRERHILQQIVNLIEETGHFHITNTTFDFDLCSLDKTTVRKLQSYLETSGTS
Active calls of the source: *. Not all compounds are listed. The share of hits here may be higher or lower than overall.

MLL AF4-AF9 inh | compound
-8.8 | Cc1cc(C)cc(N2C(=O)CS(=O)(=O)C2c2cccc([N+](=O)[O-])c2)c1 (centres undefined)
6.1 | COCC(=O)Nc1ccc2c(c1)OC[C@@H](C)N(CC1CCCCC1)C[C@H](C)[C@H](OC)CN(C)C2=O
0.4 | C[C@H]1CN([C@@H](C)CO)C(=O)CCCn2nncc2CO[C@H]1CN(C)C(=O)Nc1cccc(F)c1
-1.3 | CC(C)NC(=O)Nc1ccc2c(c1)C(=O)N([C@H](C)CO)C[C@H](C)[C@@H](CN(C)C)O2
-8.3 | C[C@@H]1CN([C@H](C)CO)S(=O)(=O)c2ccc(-c3ccc(C(=O)N(C)C)cc3)cc2O[C@@H]1CN(C)C(=O)Cc1ccccn1
2.5 | Cc1noc(C)c1NC(=O)Nc1ccc2c(c1)CC(=O)N([C@H](C)CO)C[C@@H](C)[C@H](CN(C)Cc1ccc(Cl)c(Cl)c1)O2
8.9 | OC(c1ccc(Cl)c(F)c1)c1ncc(-c2cccc(F)c2)[nH]1 (centres undefined)
-0.8 | Cc1ccc(S(=O)(=O)Nc2ccc3c(c2)C(=O)N([C@H](C)CO)C[C@@H](C)[C@@H](CN(C)S(=O)(=O)c2ccccc2)OCCCC[C@H](C)O3)cc1
-2.2 | O=C(c1cnccn1)N1CC(=O)N2[C@@H](CO)[C@@H](c3ccc(C#CCc4ccccc4)cc3)[C@@H]2C1
-3.7 | COc1ccc(-c2cnc(C(O)c3ccc(-c4ccccc4)cc3)[nH]2)cc1 (centres undefined)
-2.0 | CCS(=O)(=O)Nc1ccc2c(c1)C(=O)N(C)C[C@H](OC)[C@H](C)CN[C@H](C)CO2
13.9 | C[C@H]1CN([C@@H](C)CO)C(=O)c2cccc(NS(=O)(=O)c3cn(C)cn3)c2O[C@@H]1CN(C)Cc1ccc(-c2ccccc2)cc1
1.3 | CCN(CC)CCSC(=O)C(c1ccccc1)c1ccccc1
-3.7 | C[C@H](CO)N1C[C@H](C)[C@H](CN(C)S(=O)(=O)c2cccs2)OCc2ccccc2-c2ccccc2C1=O
-0.5 | CC1(c2nnnn2-c2ccc3c(c2)OCCO3)CCC(=O)N1Cc1ccc(F)cc1 (centres undefined)
3.4 | C[C@H]1CN([C@@H](C)CO)C(=O)c2cc(NC(=O)C3CCCCC3)ccc2O[C@@H]1CN(C)Cc1ccc(-c2ccccc2)cc1
0.1 | C[C@@H]1CN([C@@H](C)CO)C(=O)Cc2cc(NC(=O)Nc3ccc(F)cc3)ccc2O[C@H]1CN(C)Cc1ccc(Oc2ccccc2)cc1
5.2 | COCC(=O)Nc1ccc2c(c1)[C@H]1C[C@@H](CC(=O)NCCc3ccccc3)O[C@@H](CO)[C@H]1O2
-4.1 | COC(=O)c1ccc2nc(-c3cccc(Cl)c3)c(Cc3ccsc3)n2c1
3.9 | C[C@H]1CN([C@@H](C)CO)S(=O)(=O)c2ccc(C#Cc3ccccc3F)cc2O[C@H]1CN(C)CC1CCOCC1
1.8 | COc1cccc(-c2ccc3c(c2)O[C@@H](CN(C)C(=O)C2CC2)[C@H](C)CN([C@H](C)CO)S3(=O)=O)c1
-1.0 | Cc1cccc(S(=O)(=O)N(C)C[C@H]2OCc3cnnn3CCCC(=O)N([C@@H](C)CO)C[C@@H]2C)c1
-1.3 | N#C[C@H]1[C@@H](c2ccccc2-c2ccccc2)[C@@H](CO)N1C(=O)Cc1ccccc1
-1.7 | O=C(Nc1ccc2c(c1)[C@H]1C[C@H](CC(=O)N3CCOCC3)O[C@@H](CO)[C@H]1O2)c1cccnc1
2.4 | O=C(c1cnccn1)N1CC(=O)N2[C@@H](CO)[C@H](c3ccc(C#CCc4ccccc4)cc3)[C@@H]2C1
3.9 | COc1ccc(CN(C)C[C@H]2Oc3c(NC(=O)Nc4ccc(F)cc4)cccc3C(=O)N([C@@H](C)CO)C[C@H]2C)cc1
0.6 | CCNC(=O)[C@@H]1[C@@H](CO)[C@@H]2Cn3c(ccc(-c4ccc(OC)cc4)c3=O)[C@H]1N2CC
-0.1 | CC=Cc1ccc2n(c1=O)C[C@@H]1[C@@H](CO)[C@H](C(=O)N[C@H](C)c3ccccc3)N(C)[C@H]21 (mixture of isomers)
-1.5 | CC(C)NC(=O)N(C)C[C@H]1Oc2ccc(NC(=O)CCCN(C)C)cc2C(=O)N([C@@H](C)CO)C[C@H]1C
0.0 | Cc1ccc(-c2ccc([C@@H]3[C@@H](CO)N4C(=O)CN(S(=O)(=O)c5cccc(F)c5)C[C@H]34)cc2)cc1

Ordered by length of the SMILES (largest number first): some entries from above.
MLL AF4-AF9 inh | compound
1.8 | COc1cccc(-c2ccc3c(c2)O[C@@H](CN(C)C(=O)C2CC2)[C@H](C)CN([C@H](C)CO)S3(=O)=O)c1
-1.3 | CC(C)NC(=O)Nc1ccc2c(c1)C(=O)N([C@H](C)CO)C[C@H](C)[C@@H](CN(C)C)O2
-8.8 | Cc1cc(C)cc(N2C(=O)CS(=O)(=O)C2c2cccc([N+](=O)[O-])c2)c1 (centres undefined)

Reformatted as labelled records: four of the compounds above.
> O=C(Nc1ccc2c(c1)[C@H]1C[C@H](CC(=O)N3CCOCC3)O[C@@H](CO)[C@H]1O2)c1cccnc1
  MLL AF4-AF9 inh: -1.7

> O=C(c1cnccn1)N1CC(=O)N2[C@@H](CO)[C@H](c3ccc(C#CCc4ccccc4)cc3)[C@@H]2C1
  MLL AF4-AF9 inh: 2.4

> COc1ccc(CN(C)C[C@H]2Oc3c(NC(=O)Nc4ccc(F)cc4)cccc3C(=O)N([C@@H](C)CO)C[C@H]2C)cc1
  MLL AF4-AF9 inh: 3.9

> CCNC(=O)[C@@H]1[C@@H](CO)[C@@H]2Cn3c(ccc(-c4ccc(OC)cc4)c3=O)[C@H]1N2CC
  MLL AF4-AF9 inh: 0.6

Remaining list, next part
MLL AF4-AF9 inh | compound
-2.9 | Cc1noc(C)c1NC(=O)Nc1cccc2c1O[C@@H](CN(C)C(=O)Nc1c(C)noc1C)[C@@H](C)CN([C@@H](C)CO)C2=O
0.1 | CNC[C@@H]1Oc2ccc(NC(=O)NC3CCCCC3)cc2C(=O)N([C@H](C)CO)C[C@H]1C
-0.9 | C[C@@H]1CCCCO[C@@H](CN(C)S(=O)(=O)c2ccc(F)cc2)[C@H](C)CN([C@@H](C)CO)C(=O)c2cc(NS(=O)(=O)c3cccs3)ccc2O1
-2.6 | COc1ccccc1CNC(=O)C[C@H]1C=C[C@@H](NC(=O)CC2CC2)[C@@H](CO)O1
-15.0 | O=C(C[C@@H]1C[C@H]2c3cc(NC(=O)Nc4ccccc4F)ccc3O[C@H]2[C@@H](CO)O1)NCC1CC1
1.0 | Cc1ccc(S(=O)(=O)Nc2ccc3c(c2)CC(=O)N([C@@H](C)CO)C[C@@H](C)[C@@H](CN(C)C(=O)NC(C)C)O3)cc1
-1.0 | COc1ccc(S(=O)(=O)N(C)C[C@H]2Oc3c(NC(=O)c4cnccn4)cccc3C(=O)N([C@H](C)CO)C[C@H]2C)cc1
0.6 | CCC(=O)N1CC2(C1)CN(CC1CCCCC1)[C@H](CO)c1c2c2ccc(OC)cc2n1C
0.5 | CC(C)NC(=O)N(C)C[C@H]1OCCCC[C@@H](C)Oc2ccc(NC(=O)c3ccccc3)cc2C(=O)N([C@@H](C)CO)C[C@H]1C
-1.4 | C[C@@H]1CN([C@H](C)CO)S(=O)(=O)c2ccc(-c3cccc(C#N)c3)cc2O[C@@H]1CN(C)Cc1cccc(F)c1
1.6 | COc1ccc(CNC(=O)C[C@H]2C[C@H](C(=O)N(C(C)C)C(C)C)[C@@]3(C)c4[nH]c5cc(-c6ccco6)ccc5c4CCN3C2=O)cc1OC
4.5 | COc1cccc(S(=O)(=O)Nc2ccc3c(c2)OC[C@H](C)N(Cc2ccccc2F)C[C@H](C)[C@H](OC)CN(C)C3=O)c1
-2.2 | COCC#Cc1cnc2c(c1)C(=O)N([C@H](C)CO)C[C@H](C)[C@H](CN(C)C(=O)c1ccc(F)cc1)O2
-1.5 | C[C@@H]1CN([C@H](C)CO)C(=O)c2cccc(NC(=O)C3CC3)c2O[C@@H]1CN(C)Cc1ccccc1
-1.4 | O=C(C[C@H]1C=C[C@@H](NC(=O)NC2CCCCC2)[C@H](CO)O1)NCc1ccccc1
-1.4 | COc1cccc(S(=O)(=O)N[C@H]2CC[C@H](CCNC(=O)Cc3ccncc3)O[C@H]2CO)c1
-0.8 | COC(=O)C[C@@H]1C=C[C@@H](NC(=O)c2ccc3c(c2)OCO3)[C@@H](CO)O1
-1.2 | COc1ccc2c3c(n(C)c2c1)[C@@H](CO)N(Cc1cc(F)ccc1F)CC31CN(C(C)=O)C1
-2.9 | Cc1ccc(S(=O)(=O)N(C)C)cc1NC(=O)C(C)OC(=O)c1ccc2c(=O)n3c(nc2c1)CCC3 (centres undefined)
-0.6 | O=C(C[C@H]1CC[C@@H](NC(=O)CC2CC2)[C@H](CO)O1)NCc1ccc(-c2ccccc2)cc1
-5.9 | COc1cccc(CNC(=O)[C@H]2CCCN2C(=O)[C@H]2CCCN2C(=O)c2ccc(C)c(C)c2)c1
-0.7 | CC(C)NC(=O)Nc1ccc2c(c1)C(=O)N([C@H](C)CO)C[C@H](C)[C@H](CN(C)C(=O)NC(C)C)O2
3.7 | Nc1ccc2c(c1)C(=O)CCC2
-0.8 | Cc1cccc(S(=O)(=O)N[C@@H]2CC[C@@H](CCNC(=O)c3cnccn3)O[C@@H]2CO)c1
3.4 | O=C(C[C@H]1CC[C@@H]2[C@H](COC[C@H](O)CN2Cc2cc(F)ccc2F)O1)N[C@H]1CCN(Cc2ccccc2)C1
-1.9 | O=C(Cc1ccccn1)N[C@H]1CC[C@@H](CC(=O)N2CCCCC2)O[C@H]1CO
-5.2 | CN(C)CC(=O)Nc1ccc2c(c1)[C@@H]1C[C@@H](CC(=O)NCC3CC3)O[C@H](CO)[C@@H]1O2
-2.4 | CO[C@H]1CN(C)C(=O)c2cccc(C#N)c2OC[C@H]2O[C@@H](CC[C@@H]2OC)CCN(C)C(=O)[C@H]1C
-1.9 | N#C[C@H]1N[C@H](CO)[C@H]1c1ccc(-c2ccccc2F)cc1
-7.6 | Nc1nc(=S)c2ncn(C3OC(CO)CC3O)c2[nH]1 (centres undefined)

(listing goes on)
MLL AF4-AF9 inh | compound
11.8 | C[C@@H]1CN([C@H](C)CO)C(=O)c2cc(/C=C/c3ccccc3)cnc2O[C@@H]1CN(C)Cc1ccccc1F
5.7 | CCC(=O)N(C)C[C@H]1Oc2cc(-c3ccccc3F)ccc2S(=O)(=O)N([C@@H](C)CO)C[C@@H]1C
2.3 | COc1ccc(-c2ccc(CN3C(CC(C)C)C(=O)N(Cc4cn(CCC5OCCCO5)nn4)CCS3(=O)=O)cc2)cc1OC (centres undefined)
-2.8 | O=C(NCC1CCN(C(=O)C(=O)c2cccs2)CC1)c1ccncc1
-10.0 | CN1c2ccc(C#Cc3cccnc3)cc2[C@H]2[C@H](CCN2S(=O)(=O)c2ccccc2F)[C@@H]1CO
1.2 | C[C@@H]1CN([C@H](C)CO)C(=O)Cc2cc(NC(=O)CCN3CCOCC3)ccc2O[C@H]1CN(C)C(=O)Nc1ccc2c(c1)OCO2
0.6 | C[C@@H]1CN([C@H](C)CO)C(=O)c2cc(NS(C)(=O)=O)ccc2O[C@@H](C)CCCCO[C@@H]1CN(C)Cc1ccc(C(=O)O)cc1
-12.4 | COc1ccc(S(=O)(=O)Nc2cccc3c2O[C@@H](CN(C)CC2CC2)[C@H](C)CN([C@@H](C)CO)C3=O)cc1
0.8 | Cc1ccccc1-c1cnc2c(c1)C(=O)N([C@@H](C)CO)C[C@@H](C)[C@H](CN(C)C(=O)c1ccncc1)O2
0.6 | C[C@H]1CN([C@@H](C)CO)C(=O)c2c(c3ccccc3n2C)-c2ccccc2CO[C@@H]1CN(C)C(=O)Nc1cccc(F)c1
3.0 | C=CCN1Cc2ccccc2C[C@@]2(COC(c3ccc(OCCCO)cc3)=N2)C1=O
1.0 | O=C(C[C@H]1C[C@@H]2c3cc(NC(=O)C4CCOCC4)ccc3O[C@@H]2[C@H](CO)O1)NCc1ccc(Oc2ccccc2)cc1
-0.6 | C[C@H](CO)N1C[C@H](C)[C@H](CN(C)C)Oc2c(NC(=O)c3ccc(-c4nccs4)cc3)cccc2C1=O
2.3 | Cc1ccc(NC(=O)NCc2ccco2)cc1[N+](=O)[O-]
-4.7 | COC(=O)c1ccc2nc(-c3cccc(Br)c3)c(CC3CCCCC3)n2c1
-2.7 | COc1cccc(C#Cc2cnc3c(c2)C(=O)N([C@@H](C)CO)C[C@@H](C)[C@H](CN(C)C(=O)C2CCOCC2)O3)c1
-8.2 | CC(=O)N[C@H]1C[C@@H]2O[C@H](CO)CC[C@@H]2O[C@@H]1CCc1ccc(C#CC2(O)CCCC2)cc1
-3.8 | C[C@H](CO)N1C[C@H](C)[C@H](CN(C)C(=O)Nc2ccc3c(c2)OCO3)Oc2ccc(NC(=O)Nc3cccc4ccccc34)cc2C1=O
-6.0 | CO[C@H](CN(C)Cc1cc(F)ccc1F)[C@H](C)CN([C@H](C)CO)S(=O)(=O)c1ccc(F)cc1
4.6 | CCCNC(=O)N1CC(=O)N2[C@H](CO)[C@@H](c3ccc(C#CCC4CCCC4)cc3)[C@@H]2C1
1.7 | O=C1NC[C@H](CCCCN2C[C@H](Cc3ccccc3)N(CCc3ccccc3)C(=O)C2=O)N(CCc2ccc(O)cc2)C1=O
-0.9 | Cc1ccc(S(=O)(=O)Nc2ccc3c(c2)C(=O)N([C@@H](C)CO)C[C@H](C)[C@H](CN(C)S(C)(=O)=O)OCCCC[C@@H](C)O3)cc1
-1.0 | C[C@H](O)C#Cc1ccc2c(c1)O[C@H](CN(C)C(=O)Nc1ccccc1)[C@H](C)CN([C@H](C)CO)S2(=O)=O
-0.3 | C[C@H](CO)N1C[C@H](C)[C@@H](CN(C)S(=O)(=O)c2ccc(F)cc2)Oc2c(NC(=O)c3ccncc3)cccc2C1=O
-2.2 | CO[C@H]1CN(C)C(=O)c2ccc(NC(=O)C3CC3)cc2OC[C@H](C)N(C(=O)c2ccccn2)C[C@H]1C
0.7 | CNc1cncc(-c2ccc(O)cc2)n1
